Screening results deposited in PubChem by Johns Hopkins Ion Channel Center.
KCNQ2 block = KCNQ2 potassium channel inhibitors, primary screen, cell-based, CHO-K1, FluxOR thallium flux, B-score (AID 2156); O88943; 20 min; hits give low values; only compounds with negative scores are shown here; some inactives read as strong as hits; B-score at 10 µM; 310,000 compounds, 1.1% hits;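 active means fluorescence ratio B-score at most minus 3 library SDs, with starting brightness B-score within 2 library SDs, cut at about -5.5 in these data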
Target sequence (O88943 whole entry, looked up): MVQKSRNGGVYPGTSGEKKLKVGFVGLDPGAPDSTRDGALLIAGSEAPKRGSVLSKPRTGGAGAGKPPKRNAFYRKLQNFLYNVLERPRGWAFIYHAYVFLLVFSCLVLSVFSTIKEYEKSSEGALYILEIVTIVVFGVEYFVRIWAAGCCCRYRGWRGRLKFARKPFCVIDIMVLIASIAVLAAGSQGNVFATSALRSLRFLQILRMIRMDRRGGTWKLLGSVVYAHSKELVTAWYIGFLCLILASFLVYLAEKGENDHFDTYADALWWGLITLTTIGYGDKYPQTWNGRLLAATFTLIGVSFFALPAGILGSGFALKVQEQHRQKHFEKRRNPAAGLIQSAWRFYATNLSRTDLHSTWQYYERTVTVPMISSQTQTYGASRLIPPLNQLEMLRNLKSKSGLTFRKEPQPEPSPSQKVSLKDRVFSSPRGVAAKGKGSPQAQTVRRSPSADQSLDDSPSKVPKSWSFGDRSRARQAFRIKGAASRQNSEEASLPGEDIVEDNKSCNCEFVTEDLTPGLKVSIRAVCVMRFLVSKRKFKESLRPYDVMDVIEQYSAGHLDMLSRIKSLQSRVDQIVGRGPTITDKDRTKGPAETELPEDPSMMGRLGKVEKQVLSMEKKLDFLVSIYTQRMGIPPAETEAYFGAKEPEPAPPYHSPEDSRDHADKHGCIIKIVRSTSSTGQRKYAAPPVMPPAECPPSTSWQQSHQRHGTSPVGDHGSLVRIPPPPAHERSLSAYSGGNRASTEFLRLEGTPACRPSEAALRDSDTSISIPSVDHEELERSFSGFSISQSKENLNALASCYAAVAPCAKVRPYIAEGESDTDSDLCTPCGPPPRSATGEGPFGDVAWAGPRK
KCNQ2 block baseline = also measured in KCNQ2 block; calls as there; B-score; measured here: initial fluorescence intensity artifact check;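 brightness before thallium and not channel activity; 0 = typical well and far values either way flag optical interference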
* = called active by the depositor; i = inactive.

smiles | KCNQ2 block | KCNQ2 block baseline
COc1ccc(CNC(=O)[C@@H]2CC=C[C@@H]3CCN(Cc4ccccc4)C(=O)[C@@H]32)cc1 | i | 1.6
CC1CCCC(C)N1C(=O)CSc1nc2ccccc2s1 (stereo not given) | i | 1.4
Cc1nonc1CC(=O)N1CCCC(C(=O)c2ccc(Cl)cc2)C1 (stereo not given) | i | 0.66
Cc1nc2c(cc1C#N)C(=O)c1ccccc1-2 | i | 1.4
COc1ccc(Nc2ncnc3sccc23)cc1OC | i | -0.45
COc1ccc(C(=O)CSc2nnc(CNC(=O)c3ccc(OC)cc3)n2C)cc1 | i | 0.7
O=C(CN(Cc1cccs1)S(=O)(=O)c1ccc(S(=O)(=O)NC2CCCCC2)cc1)Nc1ccccc1 | i | -0.32
O=C(Nc1ccccc1F)c1coc(=O)c(Br)c1 | i | 0.61
COc1cc(-c2nnc3sc(-c4cccs4)nn23)cc(OC)c1OC | i | 0.73
CCOC(=O)c1oc2ccccc2c1COC(=O)CNC(=O)c1cccc(C)c1 | i | 0.49

Part of the list above, with the structure last.
KCNQ2 block | KCNQ2 block baseline | structure
i | 1.4 | Cc1nc2c(cc1C#N)C(=O)c1ccccc1-2
i | -0.32 | O=C(CN(Cc1cccs1)S(=O)(=O)c1ccc(S(=O)(=O)NC2CCCCC2)cc1)Nc1ccccc1

(list continues)
smiles | KCNQ2 block | KCNQ2 block baseline
COc1cc(/C=N/NS(=O)(=O)c2ccccc2)ccc1OS(=O)(=O)c1ccc(C)cc1 | i | 0.82
COc1cccc(CN2CCNC(=O)C2CC(=O)NCCN2CCOCC2)c1OC (stereo not given) | i | -1.9
CC(=O)c1c(C)[nH]c(C(=O)N2CCc3ccccc3C2)c1C | i | 0.69
FC(F)(F)c1cc(N2CCN(Cc3ccccc3)CC2)c2ccccc2n1 | i | 0.21
CCCN(CCC)C(=O)CSc1nc2ccccc2c(=O)n1C1CCCC1 | i | 2.4
CCOc1ccc(Br)cc1S(=O)(=O)N1CCC(C(=O)O)CC1 | i | 2
Cc1ccc(N(CC(=O)N/N=C/c2ccc(OC3CSC3)cc2)S(=O)(=O)c2ccccc2)c(C)c1 | i | -2.6
Cc1nnc(NC(=O)CSc2nnc(CC(=O)Nc3ccccc3C)n2C)s1 | i | 0.35
COc1cc(NC(=O)CCn2c(=S)oc3ccccc32)cc(OC)c1OC | i | 1.9
COc1cccc(C(=O)Nc2cc(NC(=O)c3cccs3)ccc2C)c1OC | i | 0.3
COc1cc(CN2CCN(CCOCCO)CC2)cc(OC)c1OC | i | -0.45
O=C(NCC1CCCO1)c1ccc2c(=O)n(-c3ccccc3)c(=S)[nH]c2c1 (stereo not given) | i | -0.81
COCCOC(=O)c1c(C)n(C)c2ccc(OC(=O)c3ccccc3F)cc12 | i | 1.2
O=C(Oc1oc(-c2ccco2)nc1C=Nc1ccc(Cl)cc1)c1ccco1 | i | 0.25
NC(=O)c1ccccc1NC(=O)CC1(CC(=O)O)CCCC1 | i | -2.8
Cc1cccc(OCC(=O)NC(=S)Nc2ccccc2N2CCOCC2)c1C | i | -0.08
COC(=O)c1cn(NC(=O)c2ccccc2[N+](=O)[O-])c(=O)c2ccccc12 | i | 0.99
CCN(CC)S(=O)(=O)c1ccc2c(c1)N(CC(=O)Nc1ccc(NC(C)=O)cc1)C(=O)CO2 | i | 1.3
CCOC(=O)C1=C(CN2c3ccccc3CC2C)NC(=O)NC1c1ccccc1 (stereo not given) | i | -0.83
CC1=C(C(=O)OCC(C)C)C(c2ccccc2Cl)NC(=O)N1C (stereo not given) | i | -0.15
O=C1CC(c2ccccc2)=NN1c1nc(-c2ccccc2)cs1 | i | -0.08
Cc1cc(NC(=O)CN2CCN(c3ccccn3)CC2)ccc1Br | i | 1.2
COC(=O)C(C)N1C(=O)S/C(=C\c2cc(C)n(-c3ccccn3)c2C)C1=O (stereo not given) | i | -0.81
COc1ccc(C(=O)c2ccc(Br)cc2)cc1 | i | -0.03
O=c1[nH]c(NCc2ccco2)nnc1Cc1ccccc1Cl | i | 2.1
O=C(CSc1ccc(-c2ccc(Cl)cc2)nn1)Nc1ccc2c(c1)OCCO2 | i | -0.56
CCn1c(C)c(C(C)=O)c(N2CCCC2)nc1=S | i | -0.03
Cc1[nH]n(-c2ccccc2)c(=O)c1/C=N/NC(=O)c1ccoc1C | i | -0.01
Nc1c(C(=O)Nc2ccc3c(c2)OCCO3)nnn1CCc1ccccc1 | i | -0.05
Cc1c(C(=O)NC(C)c2ccncc2)oc2ccccc12 (stereo not given) | i | -1.7
O=C1C(C=Nc2ccc(F)cc2)=C(O)c2ccccc21 | i | -0.12
Cc1ccc(N=Nc2[nH]c3ccccc3c2O)cc1 | i | 0.41
COc1ccccc1OCC#CCNC1CCCCC1C (stereo not given) | i | -0.02
COc1ccc(C(C)(C)C)cc1NC(=O)C1CCCO1 (stereo not given) | i | 2.2
Cc1ccc(NC(=O)c2cc(NC(=O)CCCC(=O)O)ccc2Cl)cc1Cl | i | 0.4
CCOC(=O)C1=C(C)NC(C)=C(C(=O)OCC)C1C(=O)OCC(=O)NC1(C#N)CCCCC1 | i | -0.95
O=C1CCCCCCCN1Cc1ccccc1 | i | 1.9
COc1ccc(NS(=O)(=O)c2ccc3c(c2)NC(=O)CC(=O)N3)cc1OC | i | -0.41
Cc1ccc(C(c2sc3nc(C)nn3c2O)N2CCN(c3ccccc3)CC2)cc1 (stereo not given) | i | -1.1
COc1ccc(CNC(=O)N2CCN(c3ccc(F)cc3)CC2)cc1 | i | -3.6

4 entries picked at random from the list so far:
smiles | KCNQ2 block | KCNQ2 block baseline
O=C(Nc1ccccc1F)c1coc(=O)c(Br)c1 | i | 0.61
CCCN(CCC)C(=O)CSc1nc2ccccc2c(=O)n1C1CCCC1 | i | 2.4
COCCOC(=O)c1c(C)n(C)c2ccc(OC(=O)c3ccccc3F)cc12 | i | 1.2
COc1ccc(CNC(=O)N2CCN(c3ccc(F)cc3)CC2)cc1 | i | -3.6

(list continues)
smiles | KCNQ2 block | KCNQ2 block baseline
CCOC(=O)C1CCN(CC(O)COCc2cccs2)CC1 (stereo not given) | i | -0.49
CC(C)=CCCC(C)CN1CCC(n2nccc2NC(=O)C2CCCC2)CC1 (stereo not given) | i | -1.1
CC1CC2=C(CC1/C=N/NC(N)=S)C(C)(C)CCC2 (stereo not given) | i | -0.99
CCc1nnc(SCC(=O)NC2CCCCC2)nc1CC | i | 3.9
O=C(Nc1ccc(Cl)c(Cl)c1)N1CCSCC1 | i | -1.6
OC1CCCN(CC(O)COC(c2ccccc2)c2ccccc2)C1 (stereo not given) | i | 0.82
O=C(NNC(=O)c1cc2cc(OC(F)(F)F)ccc2[nH]1)c1cccc(C(F)(F)F)c1 | i | -0.68
COC(=O)c1ccccc1NC(=O)c1sc(=S)n(C)c1N | i | 3.8
O=C(O)c1cc(-c2ccccc2)n(-c2ccc(Cl)cc2)n1 | i | 0.05
Cc1ccc(C(=O)OCc2nc(N)nc(Nc3ccccc3C)n2)cc1 | i | 0.6
CN(C(=O)c1cccc(COc2ccc(Cl)cc2Cl)c1)c1ccccc1 | i | 0.6
CCC(=O)c1ccc(/C=C/c2nc3ccccc3n2C)o1 | i | 0.18
CC(=O)Nc1ccc2c(c1)c1ccccc1n2C(C)=O | i | 0.58
COc1ccc(/C=N/NC(=O)Cn2cnc3ccccc3c2=O)cc1 | i | 1.7
Cc1cccc(NC(=O)CCCc2ccccc2)c1 | i | -1.3
Cc1ccc(Nc2nc(CSc3nnc(-c4ccncc4)n3C)cs2)cc1 | i | -1.2
Cn1c(CSCc2ccc(F)cc2)n[nH]c1=S | i | -0.03
Cn1cccc1C(=O)NCc1ccc(Cl)cc1 | i | -0.05
O=C(CSc1nnc(COc2cccc3ccccc23)o1)N1c2ccccc2CCc2ccccc21 | -8.4* | -0.15*
CCn1c(SCc2nc(-c3ccc(Cl)cc3)no2)nnc1-c1ccco1 | i | 2.4
COc1ccc(-n2c(=S)[nH]c3cc(C(=O)NCCCN4CCOCC4)ccc3c2=O)c(OC)c1 | i | 0.3
COc1ccc(CNCC(O)(c2ccccc2)c2ccc(Cl)cc2)cc1 (stereo not given) | -5.6* | -1.4*
O=C(N/N=C/C(Br)=C\c1ccccc1)c1cccs1 | i | 1.5
COc1cccc(NC(=O)CN(C)C(=O)/C=C/c2cn(-c3ccccc3)nc2-c2ccc(C)cc2)c1 | -9.1* | -1.3*
N=c1c(S(=O)(=O)c2ccc(Br)cc2)cc2c(=O)n3ccccc3nc2n1C1CCCCC1 | i | 0.49
COC(=O)c1ccc(-c2noc(CN(Cc3ccncc3)CC3CCCO3)n2)cc1 (stereo not given) | i | -1.2
COCC1CCN(c2nc3nonc3nc2N2CCSCC2)C1 (stereo not given) | i | -0.13
O=C(COC(=O)c1ccc(S(=O)(=O)C(F)F)cc1)Nc1cccnc1Cl | i | 3.6
CCC(C)c1ccc(NC(=O)N2CCOCC2)cc1 (stereo not given) | i | -1.1
COc1ccc(C2CC(c3cccc(Cl)c3)n3nc(N)nc3N2)cc1 (stereo not given) | i | 0.84
COc1cc2nc(SCC(=O)c3ccc(Br)cc3)n3nc(C)nc3c2cc1OC | i | 1.2
CCOC(=O)c1[nH]c2ccccc2c1NC(=O)CCN1CCN(C(=O)OCC)CC1 | i | 1.6
CCOc1ccccc1CNC(=O)C1Cc2cc(S(=O)(=O)N3CCCCC3)ccc2N1C(C)=O (stereo not given) | i | -0.52
CCOc1cc(C2C(C(=O)OCC(C)C)=C(C)N=C3SCCC(=O)N32)ccc1OC(C)=O (stereo not given) | i | 0.76
Cc1ccc(N(CC(=O)NC2CCCC2)C(=O)CCCC(=O)Nc2ccccn2)cc1C | i | -0.99
ONC(=Nc1ccccc1Cl)c1ccccc1Cl | i | -3.4
c1ccc2c(Nc3ccc4c(c3)OCCO4)c3c(nc2c1)CCC3 | i | 1.3
CCn1c(NC(=O)c2ccc(C)cc2)c2ccccc2nc1=O | i | -0.38
Cc1ccc(C2CC(=O)N(c3ccc(F)cc3)C3=C2C(=O)CCC3)cc1 (stereo not given) | i | -2.3
CCOC(=O)c1ccccc1Cc1nc2ccccc2c(=O)[nH]1 | i | 0.21

Record cards, as listed above. Values in the order: KCNQ2 block | KCNQ2 block baseline
Cc1nnc(NC(=O)CSc2nnc(CC(=O)Nc3ccccc3C)n2C)s1 is listed with i | 0.35
Cc1c(C(=O)NC(C)c2ccncc2)oc2ccccc12 (stereo not given) is listed with i | -1.7
NC(=O)c1ccccc1NC(=O)CC1(CC(=O)O)CCCC1 is listed with i | -2.8
Cc1nonc1CC(=O)N1CCCC(C(=O)c2ccc(Cl)cc2)C1 (stereo not given) is listed with i | 0.66

The listing continues.
smiles | KCNQ2 block | KCNQ2 block baseline
Cc1ccc(C)c(N2CCN(C(=O)CN(C)S(=O)(=O)c3cnc[nH]3)CC2)c1 | i | -0.09
CCC(C)c1ccc(N(CC(=O)NC(C)(C)C)C(=O)CNC(=O)c2cccs2)cc1 (stereo not given) | i | 0.05
COc1ccc(N(CC(=O)NC2CCCCCC2)S(=O)(=O)c2ccc(C)cc2)cc1OC | i | 2.9
Cc1cc(C)c(C(N)=O)c(NCCc2ccccc2)n1 | i | -1.2
COc1ccc(CNC(=O)COc2cccnc2[N+](=O)[O-])cc1OC | i | -0.86
CC(C)(CNS(C)(=O)=O)SCc1ccc(Cl)cc1 | i | 0.6
Cc1ccccc1Nc1nnc(SCC(=O)c2ccc(O)cc2O)s1 | i | -1.5
COC(=O)c1ccc(NC(=O)CSCc2ccccc2)cc1 | i | -0.11
COc1cc(OC)cc(C(=O)NCC(=O)OCC(=O)C(C)(C)C)c1 | i | 2
Cc1cc(C)cc(OCC(=O)OCC(=O)N2CCc3ccccc32)c1 | i | 0.35
C=CCSc1nc(N)c(C#N)c(-c2ccc(C)cc2)c1C#N | i | 1.4
CCN(CC(=O)Nc1ccc(NC(C)=O)cc1)C(=O)Cc1ccc(S(=O)(=O)N2CCOCC2)s1 | i | -0.47
CC(CCc1ccccc1)NC(=O)C1CC1 (stereo not given) | i | 0.33
FC(F)(F)c1ccc(C2[C@H]3CN(Cc4ccc(-c5ccccc5)cc4)[C@H](c4ccccc4)C34CC2(c2ccccc2)C4)cc1 (stereo not given in full) | i | 0.3
COc1cc(/C=C2/C(=O)N(c3ccc(C(=O)O)cc3)N=C2C)cc(OC)c1O | i | 1.5
Cc1ccc(CNC(=O)C2CCCN(c3nn4c(=O)cc(C)nc4s3)C2)cc1 (stereo not given) | i | 0.51
CCOc1cc(N2CCOCC2)c(OCC)cc1NC(=O)c1ccc(-n2ccnc2)c([N+](=O)[O-])c1 | i | -1.4
COc1cccc(C(c2c(C)[nH]n(-c3ccccc3)c2=O)c2c(C)[nH]n(-c3ccccc3)c2=O)c1O | i | 0.52
Cn1c(Oc2ccccc2NCc2cc(Br)ccc2O)cc(=O)n(C)c1=O | i | 0.59
Cc1cc(C)nc(NS(=O)(=O)c2ccc(NC(=O)CCC(=O)O)cc2)n1 | i | -0.4
Cc1ccc(S(=O)(=O)NC(=O)NCC2CCN(S(=O)(=O)c3ccccc3)CC2)cc1 | i | -0.28
Cc1cc(C)c(S(=O)(=O)N2CCN=C2c2ccccc2)cc1C | i | 0.2
O=C(NCCc1ccc(Cl)cc1)c1cccnc1 | i | 0.72
O=C(CSC1CC(=O)N(CC(c2ccccc2)c2ccccc2)C1=O)Nc1ccc(Cl)cc1 (stereo not given) | i | 2.6
COC(=O)C1CCCN1C(=O)C12CC3CC(CC(C3)C1)C2 (stereo not given) | i | 0.56
CCCc1cc(C(=O)N(C2CCCCC2)C2CCCCC2)no1 | -7.4* | -0.27*
CCC1CCCCN1C(=O)C(=O)c1cn(CC(=O)N(CC)CC)c2ccccc12 (stereo not given) | i | -0.63
Cc1cc(OCCN2CCC(Cc3ccccc3)CC2)ccc1[N+](=O)[O-] | i | 0.04

A portion of the library; rates above refer to the full screens.
